TRPV1 PAM = enhances activation of the human vanilloid receptor TRPV1; Q8NER1; TRPV1-expressing cells, Fluo-8 calcium influx, capsaicin EC20 potentiation; host cell line not named in the record; control for the full effect not named in the record; potentiation, % at 8.33 µM; hit rate 0.02% among 320,000; active means potentiation above 80%; inconclusive means 30% to 80%; inactive means below 30%; further: 0% is about no effect
Target sequence (Q8NER1 whole entry, looked up): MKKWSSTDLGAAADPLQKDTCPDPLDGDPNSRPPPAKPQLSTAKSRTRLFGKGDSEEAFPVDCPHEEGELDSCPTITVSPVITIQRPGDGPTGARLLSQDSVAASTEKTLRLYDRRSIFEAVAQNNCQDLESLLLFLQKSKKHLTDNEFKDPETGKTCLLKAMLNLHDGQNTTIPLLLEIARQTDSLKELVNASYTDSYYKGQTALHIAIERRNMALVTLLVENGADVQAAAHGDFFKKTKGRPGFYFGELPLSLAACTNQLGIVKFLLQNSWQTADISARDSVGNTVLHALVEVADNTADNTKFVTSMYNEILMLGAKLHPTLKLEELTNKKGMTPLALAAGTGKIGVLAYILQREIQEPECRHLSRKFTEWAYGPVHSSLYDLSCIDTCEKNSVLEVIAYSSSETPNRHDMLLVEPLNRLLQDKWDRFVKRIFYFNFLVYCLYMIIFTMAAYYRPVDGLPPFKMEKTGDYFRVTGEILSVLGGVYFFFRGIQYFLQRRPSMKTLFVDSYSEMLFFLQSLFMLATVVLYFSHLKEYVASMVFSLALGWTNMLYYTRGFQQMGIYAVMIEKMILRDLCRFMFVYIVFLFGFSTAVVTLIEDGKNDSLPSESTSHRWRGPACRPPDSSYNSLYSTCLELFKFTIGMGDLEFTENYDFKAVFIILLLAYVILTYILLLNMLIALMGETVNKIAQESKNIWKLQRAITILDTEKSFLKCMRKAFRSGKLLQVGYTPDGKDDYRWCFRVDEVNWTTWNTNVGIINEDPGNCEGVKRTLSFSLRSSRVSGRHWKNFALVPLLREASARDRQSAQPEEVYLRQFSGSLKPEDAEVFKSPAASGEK
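Fluo-8 calcium influx in TRPV1-expressing cells, kinetic read (ex 480/em 520 nm). Compound added and read 3 min for agonist activity, followed by capsaicin at EC20 final and 2 min further read for enhancement.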
CtBP-E1A blk = blocks the CtBP interaction with E1A | hit rate 0.49% among 340,000 | AlphaScreen GST-E1A/His-CtBP binding, 1536-well; active compounds read low; control for the full effect not named in the record | activity change, % (no concentration beside the values); in the data active means activity change below about -65%; inconclusive means about -30% to -65%; inactive means above about -30%; further: on the % scale 0 is the no-effect control and ±100 the full control effect
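GST-E1A and His-tagged CtBP (125 nM each as 5X stock) were preincubated with pin-transferred compound for 2 h at 37 °C in the dark, then glutathione donor and nickel acceptor beads were added for 1 h before AlphaScreen reading.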
Sfp PPTase inh = blocks B. subtilis Sfp PPTase activity | Q9F4F7 | hit rate 3.5% among 310,000 | Potency, µM, without a hit: max response, negative = inhibition, most hits filed as inhibitors | AID 1490 | Biochemical Sfp PPTase activity, qHTS; active means well fitted inhibition curve with a large enough effect; inconclusive means small, poorly fitted or top-dose-only effect, or another doubt; inactive means no such curve, though single readings can be large or run the other way;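 further: the enzyme is Sfp with the accession as filed and its product quenches rhodamine fluorescence; potency means the concentration at half of the fitted maximal effect; 0% = enzyme reaction without inhibitor and -100% = no enzyme wells; top concentration of the series not given in the record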
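Fluorescence-quenching assay: 15 nM Sfp-PPTase preincubated 15 min at room temperature with compound, then 5 uM rhodamine-CoA and 12.5 uM BHQ-2-labelled YbbR peptide added. Fluorescence (ex 525/em 598 nm) read at start and after 30 min; difference gives rate.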
Menin MLL FP FL = displaces fluorescein MLL peptide from human menin | 290,000 tested, under 10 active | FP activity change, % at 61.4 µM | Fluorescence polarization, fluorescein-MLL peptide displacement from menin | AID 1766; inconclusive = falling polarisation curve, or a change in total fluorescence; inactive = total fluorescence flat and polarisation flat or rising; no compound was filed as active; the % refers to the polarisation; negative = inhibition;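 further: % of control where 0% means no effect; inhibitors lower the polarisation; unlabelled MLL peptide was the positive control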
ClpP mod = qHTS Assay for Activators of ClpP; Potency, µM (highest dose often 57.5 µM), inactives show top-dose activity change, negative = active; hit rate 1.9% among 340,000; purified B. subtilis ClpP, FRET peptide cleavage, 20 min; active = well fitted falling curve with a large enough effect; inconclusive = small, poorly fitted or top-dose-only effect; inactive = no such curve, though single readings can be large or run the other way; further: potency means the concentration at half of the fitted maximal effect; the source files actives as falling curves though it sought activators and does not explain the sign; nearly all actives have a fitted effect of over 65% in size; many hits overshoot -100%
Target sequence (P80244 whole entry, looked up): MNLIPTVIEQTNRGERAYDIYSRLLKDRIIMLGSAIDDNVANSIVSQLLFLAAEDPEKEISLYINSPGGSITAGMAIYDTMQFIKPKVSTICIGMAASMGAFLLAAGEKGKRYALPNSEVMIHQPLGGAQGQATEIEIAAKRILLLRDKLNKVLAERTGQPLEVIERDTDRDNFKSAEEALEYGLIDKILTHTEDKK
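ClpP 10 microg/mL final, pH 8 Tris/KCl buffer with BSA, glycerol, Tween-20; compound pinned in; FRET-FV substrate; RT 20 min; Ex320/Em430; ΔFRET vs ADEP 5.8 microM, DMSO, no enzyme.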
gsp agonist = activates gsp, the McCune-Albright syndrome mutation. Potency, µM (titrated, usually from 76.9 µM), without a hit: at the highest dose activation (cAMP increase), hits mostly activators. AID 624287. hit rate 0.13% among 340,000. gsp mutant cells, cAMP HTRF, 30 min; control for the full effect not named in the record; active = well fitted activation curve with a large enough effect; inconclusive = small, poorly fitted or top-dose-only effect, or another doubt; inactive = no such curve, though single readings can be large or run the other way; cell line not stated here;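 further: phosphodiesterase inhibitor Ro 20-1724 added with compounds to block cAMP breakdown; potency means the concentration at half of the fitted maximal effect; nearly all actives have a fitted effect of over 60% in size; about a fifth of the inactives were tested at one dose only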
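Cells stably selected in G418 were plated at 2000/well, grown 16-24 hr, then given compounds in DMSO with the PDE inhibitor […] (300 uM solution added) for 30 min at 37C; cAMP was read by HTRF.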
gsp antagonist = gsp mutant antagonism | AID 624288 | hit rate 0.4% among 340,000 | gsp-mutant cells, cAMP HTRF, 30 min; control for the full effect not named in the record | Potency, µM (highest dose often 76.9 µM), for the others: at the top dose activity change, negative = inhibition, hits mostly inhibitors; active = falling curve of any shape with a large fitted effect; inconclusive = falling curve, mostly with a smaller effect; inactive = flat or rising curve; cell line not stated here;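 further: intracellular cAMP measured with PDE inhibitor Ro 20-1724 present during compound exposure; potency means the concentration at half of the fitted maximal effect; on the % scale 0 is the no-effect control and ±100 the full control effect; nearly all actives have a fitted effect of over 65% in size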
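Cells, 2000/well, grown 16–24 h in DMEM 10% FBS with 0.5 mg/ml G418, then compounds plus […] (300 uM addition stock), 30 min at 37C. cAMP read by HTRF (cAMP-d2 and anti-cAMP antibody-K in lysis buffer) after 30 min RT.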
Numbers without * were called inactive; ? = inconclusive; nt = no result given; [ ] = another dose, or the depositor's remark.

SMILES | TRPV1 PAM | CtBP-E1A blk | Sfp PPTase inh | Menin MLL FP FL | ClpP mod | gsp agonist | gsp antagonist
CC(=O)NCCC(=O)N1CCCC(C(=O)c2ccc3c4c(cccc24)CC3)C1 (stereo not given) | -2.0 | -0.2 | -6.9% | -0.3 | nt | 0.4%[15.4 µM] | 0.3%
Cc1cc(C)n2nc(C(=O)OCC(=O)Nc3ccc(F)cc3F)nc2n1 | 4.0 | 1.2 | nt | nt | 1.0% | 7.8%[15.4 µM] | -8.0%
Cc1cccc(/C(N)=N/OC(=O)N2CCOCC2)c1 | 6.3 | -2.4 | 18.1% | -0.6 | -0.7% | -43.9%[inhibitor] | 6.4%
O=C(COC(=O)CCNS(=O)(=O)c1ccc(Cl)cc1)NCc1ccccc1 | nt | 3.0 | nt | nt | -0.8% | ? | nt
Nc1nc2c(F)c(F)c(F)cc2s1 | -4.0 | nt | ? | -1.8 | -0.5% | -46.9%[inhibitor] | -0.8%
COc1cccc(C2=NN(C(=O)c3ccco3)C(c3ccco3)C2)c1 (stereo not given) | -18.6 | -13.6 | 50.1µM* | nt | -1.6% | ? | ?
CC(=O)N1C(C(=O)O)Cc2c([nH]c3ccccc23)C1(C)C (stereo not given) | ? | -11.3 | 4.5% | -0.6 | -1.9% | 13.3%[15.4 µM] | 6.8%
CC1(C)CC(=O)C(C(C2=C(O)CC(C)(C)CC2=O)c2cccc(O)c2)C(=O)C1 (stereo not given) | -3.5 | -1.8 | 22.4µM* | -2.9 | 0.3% | 5.6% | -6.3%
COC(=O)c1ccccc1NC(=O)c1ccc2c(c1)OCCO2 | -20.7 | 2.4 | -3.6% | -0.6 | -7.6% | 0.0% | -9.8%
Cc1cc(C)nc(SCC(=O)N/N=C/C=C/c2ccccc2)n1 | 14.4 | -2.9 | -12.0% | 2.0 | 0.3% | ? | -15.2%
COc1ccc(CNS(=O)(=O)c2ccc3c(c2)N(C(C)=O)CCO3)cc1 | -4.5 | 13.5 | 10.1% | -0.1 | 1.1% | -1.1% | 3.6%
CCN(CCC#N)c1ccc(N2C(=O)CCCC2=O)cc1[N+](=O)[O-] | 7.8 | 7.5 | 17.6% | 5.5 | -0.4% | ? | 7.7%

Sfp PPTase inh, hit marks shown above.
SMILES | CtBP-E1A blk | Sfp PPTase inh | Menin MLL FP FL | gsp agonist | gsp antagonist
COc1cccc(C2=NN(C(=O)c3ccco3)C(c3ccco3)C2)c1 (stereo not given) | -13.6 | 50.1µM* | nt | ? | ?
CC1(C)CC(=O)C(C(C2=C(O)CC(C)(C)CC2=O)c2cccc(O)c2)C(=O)C1 (stereo not given) | -1.8 | 22.4µM* | -2.9 | 5.6% | -6.3%

One compound at a time (already shown). Order of values: TRPV1 PAM | CtBP-E1A blk | Sfp PPTase inh | Menin MLL FP FL | ClpP mod | gsp agonist | gsp antagonist
Nc1nc2c(F)c(F)c(F)cc2s1 in the list: -4.0 | nt | ? | -1.8 | -0.5% | -46.9%[inhibitor] | -0.8%
COc1ccc(CNS(=O)(=O)c2ccc3c(c2)N(C(C)=O)CCO3)cc1 in the list: -4.5 | 13.5 | 10.1% | -0.1 | 1.1% | -1.1% | 3.6%
CC1(C)CC(=O)C(C(C2=C(O)CC(C)(C)CC2=O)c2cccc(O)c2)C(=O)C1 (stereo not given) in the list: -3.5 | -1.8 | 22.4µM* | -2.9 | 0.3% | 5.6% | -6.3%

The list goes on:
SMILES | TRPV1 PAM | CtBP-E1A blk | Sfp PPTase inh | Menin MLL FP FL | ClpP mod | gsp agonist | gsp antagonist
Cc1c(NC(=O)C23CC4CC(CC(Br)(C4)C2)C3)c(=O)n(-c2ccccc2)n1C | -2.6 | 3.8 | 29.6% | 0.8 | -1.1% | -1.4% | -24.2%
O=C(Nc1ccc(Cl)cc1)Nc1ccc(C(=O)N2CCOCC2)cc1 | -1.7 | nt | 1.9% | 1.6 | -1.2% | 6.2% | -10.4%
COC(=O)c1[nH]c2cc(OC)ccc2c1NC(=O)c1nonc1C | -3.7 | 1.8 | 12.0% | -1.2 | -1.6% | 21.5% | 6.7%
C=CCn1c(SCC(=O)NC(C)(C)C)nnc1-c1ccccc1O | ? | 7.5 | 0.5% | 2.0 | 0.0% | -0.8% | 7.7%
COc1ccc(Cl)cc1NC(=O)Nc1cn(C)nc1C | 2.4 | -3.4 | 8.2% | 0.4 | nt | 0.8%[15.4 µM] | 1.0%
OCc1nc2ccccc2n1C/C=C/c1ccccc1 | -23.1 | -1.6 | 6.0% | 3.1 | -7.5% | -16.3% | -8.4%
COc1ccc(CN2CC(=O)N(c3ccccc3C)C2=S)cc1OC | -17.0 | -0.8 | -3.3% | -0.9 | nt | 7.5%[15.4 µM] | -7.0%
C/C(=N\NC(=O)C(O)c1ccccc1)c1ccc(Cl)cc1 (stereo not given) | 0.0 | -1.7 | 6.3% | -0.6 | nt | 0.1% | 0.1%
CCOC(=O)c1cnn(-c2ncnc3c2cnn3C)c1N | -17.6 | -9.3 | 8.9% | 4.2 | nt | 23.1%[15.4 µM] | 4.4%
CC(=O)Nc1ccc(S(=O)(=O)NCC2CCC(C(=O)NCCCN(C)Cc3ccccc3)CC2)cc1 (stereo not given) | -1.2 | 0.9 | 9.5% | 1.9 | 0.8% | 0.6% | 12.0%
CCC(C)c1ccc(NC(=O)Nc2cccnc2)cc1 (stereo not given) | 4.3 | -11.5 | 10.0% | -6.3 | -0.5% | 0.0% | 9.4%
O=C(CCCCn1c(=O)[nH]c2ccccc2c1=O)NCc1ccc2c(c1)OCO2 | 27.2 | -4.2 | 22.8% | -5.8 | -2.2% | 16.7% | 8.2%

Quoted at random: four records from the list, in no set order.
SMILES | TRPV1 PAM | CtBP-E1A blk | Sfp PPTase inh | Menin MLL FP FL | ClpP mod | gsp agonist | gsp antagonist
C=CCn1c(SCC(=O)NC(C)(C)C)nnc1-c1ccccc1O | ? | 7.5 | 0.5% | 2.0 | 0.0% | -0.8% | 7.7%
Cc1c(NC(=O)C23CC4CC(CC(Br)(C4)C2)C3)c(=O)n(-c2ccccc2)n1C | -2.6 | 3.8 | 29.6% | 0.8 | -1.1% | -1.4% | -24.2%
CC(=O)Nc1ccc(S(=O)(=O)NCC2CCC(C(=O)NCCCN(C)Cc3ccccc3)CC2)cc1 (stereo not given) | -1.2 | 0.9 | 9.5% | 1.9 | 0.8% | 0.6% | 12.0%
O=C(Nc1ccc(Cl)cc1)Nc1ccc(C(=O)N2CCOCC2)cc1 | -1.7 | nt | 1.9% | 1.6 | -1.2% | 6.2% | -10.4%

The results go on:
SMILES | TRPV1 PAM | CtBP-E1A blk | Sfp PPTase inh | Menin MLL FP FL | ClpP mod | gsp agonist | gsp antagonist
CCN1C(=O)CSC1=Nc1ccc(OC)cc1 | -2.0 | 1.4 | 14.6% | -0.3 | -0.1% | 1.9%[15.4 µM] | 12.4%
Cc1ccc(S(=O)(=O)Nc2nc3ccccc3nc2NCc2ccco2)cc1C | 21.8 | -5.8 | 2.8% | 1.2 | 28.2µM* | 12.6% | ?
COc1cc(NC(=S)NCCCO)c(OC)cc1Cl | -16.0 | nt | ? | -1.8 | -0.4% | 24.9% | 9.1%
CN(C)S(=O)(=O)c1ccc(Cl)c(NC(=O)COC(=O)CCC(=O)c2cccs2)c1 | nt | 1.2 | -7.7% | -1.4 | 0.2% | ? | -12.5%
Cc1c(C(=O)N/N=C/C(C)C)[nH]c2c([N+](=O)[O-])cccc12 | 1.4 | -4.7 | 0.0% | -3.0 | nt | 8.2% | 7.5%
NS(=O)(=O)c1ccc(N2CCOCC2)c(C(=O)NCc2ccc3c(c2)OCO3)c1 | -2.4 | 5.5 | nt | nt | -1.5% | 4.0% | 3.3%
CC(CC(=O)O)CC(=O)NNC(=O)c1cccc(Br)c1 (stereo not given) | 6.2 | 11.3 | 16.9% | 5.7 | nt | 3.1% | 3.5%
CCCNC(=O)N1CCN(S(=O)(=O)c2ccc(C)c(C)c2)CC1 | nt | -6.1 | nt | nt | -1.4% | -2.3% | -8.4%
CCCOc1ccc(C(=O)N2CCN(c3ccc(N)cc3Cl)CC2)cc1 | -17.1 | -10.4 | -8.0% | 1.8 | -0.1% | -31.6%[inhibitor] | -12.2%
CC(=O)c1cccc(N2C(=NC(=O)CCc3ccccc3)SC3CS(=O)(=O)CC32)c1 (stereo not given) | -8.8 | 1.3 | 8.6% | 1.0 | -1.1% | ? | 16.6%
CC1CCCCC1NC(=O)CCCn1c(=S)[nH]c2ccccc2c1=O (stereo not given) | 5.5 | -18.3 | 20.8% | -3.5 | ? | -6.7%[15.4 µM] | 0.1%
COc1cc(-c2cc(C(=O)NN3CCN(C)CC3)c3ccccc3n2)cc(OC)c1OC | -2.4 | nt | -24.2% | -4.2 | nt | nt | nt
O=C(Nc1ccccc1N1CCN(C(=O)c2ccccc2)CC1)c1ccc(Br)o1 | -2.2 | 4.5 | -2.0% | nt | 1.2% | 27.3% | ?
Cc1ccc(O)c(NC(=S)NC(=O)COc2ccc(Br)cc2)c1 | 11.6 | -10.5 | -5.3% | -0.3 | nt | 11.0% | 1.2%
COc1ccc(NCc2ccc([N+](=O)[O-])s2)cc1 | 9.3 | -12.3 | -25.0% | 9.4 | -3.7% | -0.9% | -0.5%
CC/C(=N\NC(N)=O)c1ccc(OC)c(OC)c1 | 4.0 | -0.6 | 8.3% | 0.8 | -0.4% | -10.3%[15.4 µM] | 16.8%
O=C(CN1C(=O)NC2(CCCC2)C1=O)OCCOc1ccc(Cl)cc1Cl | -4.2 | -1.6 | nt | nt | -1.2% | -10.3% | 7.7%
O=C1C2C3C=CC(O3)C2C(=O)N1Cc1ccncc1 (stereo not given) | nt | -2.1 | nt | nt | -1.6% | -2.5% | 1.7%
CCOc1ccc(S(=O)(=O)N(CC(=O)N2CCc3ccccc32)Cc2ccco2)cc1 | 4.5 | -2.6 | -0.5% | 0.0 | -0.8% | ? | -18.5%
Cc1ccc(S(=O)(=O)N2CCC(=O)N(CCOCc3ccc(F)cc3)CC2)cc1 | 19.1 | 6.2 | 1.3% | 1.9 | -0.1% | nt | -4.3%
O=C(Oc1ccc2c3c(c(=O)oc2c1)CCC3)c1ccccc1[N+](=O)[O-] | -2.9 | nt | 17.7% | 4.0 | nt | nt | nt
CCC/C=C/c1ccc(CN2C(C(C)C)C(=O)N(Cc3cn(Cc4ccco4)nn3)CCS2(=O)=O)cc1 (stereo not given) | nt | ? | nt | nt | 0.3% | 6.2% | nt

Not a hit list; overall some 5.3% were active at least once.
